Sa growth 42C – inhibitors of Staphylococcus aureus growth at 42 °C | S. aureus RN4220 growth, OD600, 20 h; active compounds read low | relative growth, % (test concentration not listed) | 170,000 compounds, 0.53% hits | AID 720641;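 active = growth at 42 °C up to 50% and 20 or more points under that at 30 °C, or under 10% at both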;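 note: 300 nL library stock went into each well; scaled to the means of positive and negative controls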
GIV-Gai inh – blocks GIV peptide binding to rat Galpha-i3; P08753; Galpha-i3/FITC-GIV peptide fluorescence polarization, 90 min; active compounds read low; scaled: aluminum fluoride 0%, vehicle 100%; percent of control (FP), % (no concentration beside the values); 210,000 compounds, 0.42% hits; AID 1224905;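 active = replicate mean at 85% of control or lower, very high polarization wells dropped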;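 note: wells of about 15 µL received 100 nL stock; the first replicate is given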
Target sequence (P08753 whole entry, looked up): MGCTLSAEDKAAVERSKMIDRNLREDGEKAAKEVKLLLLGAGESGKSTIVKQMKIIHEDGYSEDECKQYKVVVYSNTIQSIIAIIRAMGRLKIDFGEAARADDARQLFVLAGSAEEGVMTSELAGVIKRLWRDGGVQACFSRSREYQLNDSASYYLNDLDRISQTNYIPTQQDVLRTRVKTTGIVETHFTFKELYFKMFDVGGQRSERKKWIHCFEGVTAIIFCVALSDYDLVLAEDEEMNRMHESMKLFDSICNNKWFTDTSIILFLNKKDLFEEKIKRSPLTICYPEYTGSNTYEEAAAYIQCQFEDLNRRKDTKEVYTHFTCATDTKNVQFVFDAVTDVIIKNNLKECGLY
HCMV NEC inh – cytomegalovirus nuclear egress complex inhibition. HTRF UL50-UL53 interaction, normalized percent inhibition. inhibition, % (concentration not given with the values). 190,000 compounds, 0.15% hits;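 active = both replicates at 50% or more, plus weaker picks with an unusually low signal ratio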;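 note: stock transfer was 100 nL into about 20 µL; 0% = negative control wells and 100% = wells with untagged competitor protein; inactives centre near -12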
Sa growth 42C second temp – recorded beside Sa growth 42C, whose call it bears; relative growth, %; measured here: growth at 30 °C;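 optical density after 20 h as mean of two plates; 100% = untreated growth and lower means inhibition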
Starred values were filed as active, the others as inactive; nt = not tested or not shown; & = joins results of further samples.

SMILES	Sa growth 42C	Sa growth 42C second temp	GIV-Gai inh	HCMV NEC inh
CC(C)CC(NC(=O)C1CCC(C)CC1)C(=O)NCc1ccccn1 (stereo not drawn)	93	97	98	5
Clc1ccc(Cl)c(-c2ccc(CNCc3ccccn3)o2)c1	nt	nt	101	-10
O=C(c1ccc2ccccc2n1)N1CCCCC1	98	82	nt	-24
CCN(C(=O)CN1C(=O)c2ccccc2Sc2ccc(C(=O)OC)cc21)c1cccc(C)c1	121	102	110	nt
Cc1ccc(C)c(N2CCN(C(=O)Cc3c(C(=O)O)c(C)cn3C)CC2)c1	93	85	100	nt
O=c1c2cc(-c3ccccc3)sc2nc2c3ccccc3cnn12	95	84	101	-14
COC(=O)c1sccc1NC(=O)c1cc(-c2ccc(Cl)cc2)nc2ccccc12	nt	nt	106	-3
Cc1cc2oc(=O)cc(C)c2c2c1C(=O)CC(c1ccc3c(c1)OCO3)O2 (stereo not drawn)	nt	nt	100	-4
COc1cccc(C(=O)c2sc3nsc(SCc4ccccc4)c3c2N)c1	96	75	-42*	-39
CC(C)CCn1nc(C(=O)OCC#N)c2ccccc2c1=O	84	93	nt	-28
O=C(Cc1ccc(S(=O)(=O)N2CCCC2)s1)Nc1nc2c(s1)CCCC2	107	97	nt	-8
COc1cc(Cl)c(C)cc1NC(=O)CCn1c(=O)c2cccn2c2cccnc21	116	90	101	nt
CCN1C(=O)C(O)(C2COC(C)(C)CC2=O)c2ccccc21 (stereo not drawn)	nt	nt	108	-49
O=C(O)c1ccc(CS(=O)(=O)c2ccccc2)o1	80	61	77*	nt
COc1ccc(Cc2nc3c4cnn(-c5ccccc5Br)c4ncn3n2)cc1	100	84	101	-10
CCc1c(C)nc2nncn2c1Nc1ccc(C(C)C)cc1	79	86	100	-16
CCc1ccc(-c2nc(CN3CCCC(C(=O)NCc4ccc(Cl)cc4)C3)c(C)o2)cc1 (stereo not drawn)	93	92	106	-22
NC(N)=N/N=C/c1c(Cl)cccc1Cl	75	72	105&100	-39&-20&-10&-17
Nc1nonc1-c1nc2ccccc2n1CC(=O)Nc1cccc(Cl)c1Cl	101	86	107	-76
CCCCSc1nnc(-c2ccc(O)cc2)n1-c1ccccc1	nt	nt	105	-9
C=CCNC(=O)Cc1c(O)c2ccccc2[nH]c1=O	80	97	97	-20
CCN1CCN(c2ccc(N=Cc3cc(I)ccc3O)cc2)CC1	97	87	28*	-29
NC(=O)c1ccc(-n2nnnc2-n2ccnc2)cc1	99	98	99	-13
CCCCOc1ccccc1C1CC(=O)Nc2c1c(C)nn2-c1ccc2nncn2n1 (stereo not drawn)	nt	nt	103	-35
Cc1ccc(-c2nc(N3CCN(c4ccccc4Cl)CC3)c3ccccc3n2)cc1	81	88	105	-75
O=C(Cc1ccccc1)c1cccs1	93	98	nt	8
Cc1cccc(CN2CCC(CNC(=O)c3cc4cc5ccc(C)cc5nc4o3)CC2)c1	92	93	103	nt
O=C(OCc1ncc(-c2ccccc2)o1)c1nc(-c2ccccc2)n(-c2ccccc2)n1	87	94	nt	-8
O=P(CCCO)(Cc1ccccc1)Cc1ccccc1	94	83	nt	-42
Nc1c(S(=O)(=O)c2ccccc2)nnn1-c1ccc(OC(F)(F)F)cc1	86	85	111	nt

Single entries from above.
Sa growth 42C second temp with Nc1c(S(=O)(=O)c2ccccc2)nnn1-c1ccc(OC(F)(F)F)cc1 : 85
GIV-Gai inh with CCCCSc1nnc(-c2ccc(O)cc2)n1-c1ccccc1 : 105
HCMV NEC inh with NC(N)=N/N=C/c1c(Cl)cccc1Cl : -39&-20&-10&-17

(listing goes on)
SMILES	Sa growth 42C	Sa growth 42C second temp	GIV-Gai inh	HCMV NEC inh
CCN(CCNCc1c(C(=O)O)n(C)c2ccccc12)c1ccccc1	106	93	99	-13
CS(=O)(=O)Nc1ccc(C#N)cc1	90	90	106	-19
CC1CN(S(=O)(=O)c2ccc(C(=O)Nc3ccccc3)cc2)CC(C)O1 (stereo not drawn)	92	103	99	-15
O=S(=O)(Cc1nc(CSc2ccccn2)cs1)c1ccc(Cl)cc1	113	89	106	21
CC(O)c1nc2cc3ccccc3cc2[nH]1 (stereo not drawn)	99	63	107	-27
CCOC(=O)C1CCN(C(=O)c2cc(C)nn2C(C)(C)C)CC1	110	90	108	-6
CC(C)Cn1c(=S)[nH]c2ccccc21	88	87	98	nt
COc1ccc(C2CC(=O)C3=C(C2)Nc2ccccc2NC3c2cc(Br)ccc2OC)cc1 (stereo not drawn)	nt	nt	98	-8
c1ccc(CCSc2nnc3sc4ccccc4n23)cc1	138	69	97	nt
O=C(NC(=S)N1CCOCC1)c1cn(-c2ccccc2)nc1-c1cccnc1	95	85	nt	-10
Cc1nnc(SCC(=O)Nc2ccc(Cl)c(Cl)c2)c2ccccc12	nt	nt	101	-30
CCOc1cccc(S(=O)(=O)N=C2C=C(C(C)(C)C)C(=O)C(C(C)(C)C)=C2)c1	84	74	102	nt
COC(=O)C1=C(CS(=O)(=O)c2cc(Cl)ccc2OC)NC(=O)NC1c1ccccc1 (stereo not drawn)	101	88	105	-6
CC1CCN(c2cc(NC3CCCCC3)c3c4c(onc24)-c2ccccc2C3=O)CC1	nt	nt	228	-18
CSc1ccccc1Sc1cc(C(=O)NCc2ccco2)c2ccccc2n1	117	83	104	nt
COc1ccc(C(=O)N2CCN(C(=O)COc3ccccc3)CC2)cc1OC	105	88	107	-17
CC(N=C1NS(=O)(=O)c2ccccc21)C(=O)N1CCN(S(=O)(=O)c2cccs2)CC1 (stereo not drawn)	88	92	nt	1
COc1ccc(C2CC(=O)C3=C(C2)NC(C)=C(C(=O)OC(C)C)C3c2cc(Cl)c(O)c(OC)c2)cc1 (stereo not drawn)	nt	nt	103	-32
CCOc1ccc(CNC(=O)c2cc(=O)[nH]c3ccccc23)cc1	100	91	101	nt
Cc1ccc2c(c1)cc(CN(Cc1ccco1)C(=O)NCc1ccccc1)c1nnnn12	90	96	100	3
O=S(=O)(Nc1ccc(O)cc1)c1cccs1	93	85	103	-5
CCN(CC)CCCNC(=O)CCc1c(C)n(CC)c2cc(-c3ccccc3OC)nn2c1=O	116	90	105	-25
Cc1cc(C)nc(N2CCN(c3cc(C)nc4c(-c5ccc(F)cc5)c(C)nn34)CC2)n1	nt	nt	103	-20
CN(CC(=O)Nc1ccc(N2CCOCC2)cc1)Cn1nc(Nc2ccccc2F)sc1=S	83	76	nt	16
COC(=O)c1scc(-c2ccc(C)cc2)c1S(=O)(=O)Nc1cc(OC)c(OC)c(OC)c1	92	58	103	nt
COc1cc(-c2noc(-c3ccc(NCCc4ccccc4)c([N+](=O)[O-])c3)n2)cc(OC)c1OC	97	83	101	-14
CC(C)CCNS(=O)(=O)Cc1ccccc1	83	78	nt	-22
Cc1cccc(-c2nc(N)n(C(=O)C3CC3)n2)c1	nt	nt	103	-29
Cc1ccc(S(=O)(=O)NC(=O)NC2CCS(=O)(=O)C2)cc1 (stereo not drawn)	99	93	nt	-18
CCOC(=O)c1ccc2nc(C(F)(F)F)nc(N3CCOCC3)c2c1	98	94	104	-23
CCN(CC)C(=O)n1cnc2cc(C)c(C)cc21	104	76	125	nt
CCCn1c(NC(=O)NCc2ccccc2)c2ccccc2nc1=O	94	87	103	-24
CCOC(=O)c1ccc(N2N=C(C(F)(F)F)/C(=C/C=C/c3ccco3)C2=O)cc1	101	64	106	nt
O=C(Nc1ncc(S(=O)(=O)c2ccc([N+](=O)[O-])cc2)s1)c1cc(-c2ccccc2)nc2ccccc12	nt	nt	103	-6
CN1CCN(C2=Nc3ccccc3Sc3ccc(Cl)cc32)CC1	91	77	103	-48
N#Cc1cnn(C(=O)c2ccc(Cl)cc2)c1C1CC1	86	84	94	-17
CCOC(=O)CC(NC(=O)CCc1c(C)nc2cc(-c3ccccc3)nn2c1C)c1ccc(C)cc1 (stereo not drawn)	100	79	107	6
Cc1ccc(C(=O)NCCO)cc1	98	97	105	8
COc1ccc(C)cc1NC(=O)c1nnn(-c2c(C)cccc2C)c1C	97	98	100	-4
CCOC(=O)c1ccc(NC(=O)C(CC)Sc2nc3ncccc3[nH]2)cc1 (stereo not drawn)	104	76	101	nt
COc1ccc(N2CCN(C(CNC(=O)C3CCCCC3)c3cccnc3)CC2)cc1 (stereo not drawn)	107	83	104	-1
OCc1c[nH]c(=S)n1Cc1ccccc1	115	99	100	13
Cc1ccc(C)c(Cn2c3ccccc3c3cnn(CC(=O)NCCc4ccccc4)c(=O)c32)c1	102	90	108	2
CCCCOc1ccc(C(=O)NCCS(=O)(=O)N2CCN(c3ccc(F)cc3)CC2)cc1	78	92	104	nt
Nc1nc(-c2ccccc2)c(-c2nc3ccccc3[nH]2)s1	98	97	nt	-7

In the list so far, these contain a cyano group:
SMILES	Sa growth 42C	Sa growth 42C second temp	GIV-Gai inh	HCMV NEC inh
CC(C)CCn1nc(C(=O)OCC#N)c2ccccc2c1=O	84	93	nt	-28
CS(=O)(=O)Nc1ccc(C#N)cc1	90	90	106	-19
N#Cc1cnn(C(=O)c2ccc(Cl)cc2)c1C1CC1	86	84	94	-17

(listing goes on)
SMILES	Sa growth 42C	Sa growth 42C second temp	GIV-Gai inh	HCMV NEC inh
CCCn1c(=O)c2ccc(C(=O)NC(C)C)cc2n2c(=O)n(CC(=O)Nc3ccc(C)c(C)c3)nc12	nt	nt	107	-30
CC(NCC(=O)NN)c1ccccc1 (stereo not drawn)	112	93	nt	-13
CCOc1ccccc1NC(=O)COC(=O)C1CC1C (stereo not drawn)	109	77	nt	-30
CCOC(=O)c1c(NC(=O)CCc2ccccc2)sc(C(=O)Nc2ccc(C)c(Cl)c2)c1C	nt	nt	100	-3
CN(C)c1ccc(C(=O)N2CCCC2c2nnc(SCc3ccccc3)n2C)cc1 (stereo not drawn)	107	75	100	-15
CC1CCCCC1NC(=O)NC(=O)CSc1ccc2c(c1)OCCO2 (stereo not drawn)	88	61	nt	-8
CNc1sc(C(=O)c2ccc(Cl)cc2)c(N)c1C(N)=O	98	100	nt	-27
COc1ccc(C(=O)N(O)c2ccccc2)cc1	84	76	109	-10
Cc1ccc(NC(=O)Cn2cc3c(n2)CCCCC3)cc1	102	96	98	2
O=C(NCC(c1ccccc1)N1CCCC1)c1cc(-c2ccccc2)on1 (stereo not drawn)	nt	nt	97	-8
O=C(Cn1nnc(-c2ccncc2)n1)N(C1CCCCC1)C1CCCCC1	69	81	108	15
COc1cc(NC(=O)c2nn(C)c3c2COc2ccccc2-3)cc(OC)c1OC	110	104	101	-11
CCn1nc(C)c(CCNC(=O)C2CCCN(c3nc4cccnc4s3)C2)c1C (stereo not drawn)	nt	nt	106	2
CCOc1ccccc1NC(=O)CN1C=NS(=O)(=O)c2ccccc21	88	87	101&103	nt
O=C(NC1CCCN(c2nc3ccccc3s2)C1)N1CC=CCC1 (stereo not drawn)	122	90	109	30

4 entries picked at random from the list so far:
SMILES	Sa growth 42C	Sa growth 42C second temp	GIV-Gai inh	HCMV NEC inh
CCN(C(=O)CN1C(=O)c2ccccc2Sc2ccc(C(=O)OC)cc21)c1cccc(C)c1	121	102	110	nt
CCCCOc1ccccc1C1CC(=O)Nc2c1c(C)nn2-c1ccc2nncn2n1 (stereo not drawn)	nt	nt	103	-35
CC(O)c1nc2cc3ccccc3cc2[nH]1 (stereo not drawn)	99	63	107	-27
CCOc1ccccc1NC(=O)CN1C=NS(=O)(=O)c2ccccc21	88	87	101&103	nt

Continuation.
SMILES	Sa growth 42C	Sa growth 42C second temp	GIV-Gai inh	HCMV NEC inh
CCN(CC)c1ccc(/C=N/N2C(=O)c3ccccc3C2=O)c(O)c1	93	94	103	-10
COc1ccc(NC(=O)N2CCCN(C(=O)c3nonc3N)CC2)cc1OC	nt	nt	96	-19
COc1cccc(-c2nc(CSc3nc4ccccc4n4c(C)nnc34)c(C)o2)c1OC	nt	nt	108	-10
COc1ccc(C2CC(c3cc(Cl)ccc3O)=NN2)cc1 (stereo not drawn)	44	27	124	-9
O=C(O)c1cnc2ccc(Cl)cc2c1N1CCOCC1	nt	nt	102	-11
N#Cc1ccsc1NC(=O)c1ccncc1	107	62	113	-7
CCN(CC)CCNc1ccc(CO)c2sc3ccccc3c(=O)c12	104	91	nt	-82&-105
O=C(O)c1ccccc1CSc1nc2ccccc2[nH]1	117	92	nt	-5
S=c1[nH]nc(Cn2cncn2)o1	87	89	nt	-32
CCOc1cc(C(c2c(C)[nH]n(-c3ccccc3)c2=O)c2c(C)[nH]n(-c3ccccc3)c2=O)ccc1O	85	75	113	40
COc1ccc(NC(=O)c2cc(S(=O)(=O)N3CCC(C)CC3)cn2C)c(OC)c1	nt	nt	107	-22
Cc1nnsc1C(=O)Oc1ccc(C(C)C)cc1	99	85	102	-32
CC(C)c1cc(C(=O)O)c2cnn(C(C)C)c2n1	102	80	nt	-16
CCOC(=O)CSc1nc2c(sc3ccccc32)c(=O)n1Cc1ccc(C)cc1	105	87	105	nt
CCCSc1ncc(Cl)c(C(=O)Nc2ccc(S(=O)(=O)Nc3nccs3)cc2)n1	53	51	100	nt
CCC1=Nc2cc(C(=O)NCc3ccco3)ccc2Sc2ccccc21	88	85	103	-25
CCCc1cc(=O)[nH]c(Nc2ccc(O)cc2C)n1	96	90	107	14

Laid out differently: results already given.
Molecule | Sa growth 42C | Sa growth 42C second temp | GIV-Gai inh | HCMV NEC inh
CCCSc1ncc(Cl)c(C(=O)Nc2ccc(S(=O)(=O)Nc3nccs3)cc2)n1 | 53 | 51 | 100 | nt
CCC1=Nc2cc(C(=O)NCc3ccco3)ccc2Sc2ccccc21 | 88 | 85 | 103 | -25
CCCc1cc(=O)[nH]c(Nc2ccc(O)cc2C)n1 | 96 | 90 | 107 | 14

Source: PubChem

Outcome played no part in choosing rows; 0.8% or so of the library scored in one or more.
